Compound activity deposited in PubChem BioAssay by several laboratories.
GALR2 agonist – GALR2 (human) receptor agonism; O43603; GALR2-expressing cells, agonist activation read-out; activation, %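 (tested at 5 µM)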; 140,000 tested, 0.48% active;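 active = above mean plus 3 SD of all compounds, about 5% in these data, not always enough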;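 note: 0% = vehicle buffer wells and 100% = reference agonist at full effect; tested in CHO reporter cells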
Target sequence (O43603 whole entry, looked up): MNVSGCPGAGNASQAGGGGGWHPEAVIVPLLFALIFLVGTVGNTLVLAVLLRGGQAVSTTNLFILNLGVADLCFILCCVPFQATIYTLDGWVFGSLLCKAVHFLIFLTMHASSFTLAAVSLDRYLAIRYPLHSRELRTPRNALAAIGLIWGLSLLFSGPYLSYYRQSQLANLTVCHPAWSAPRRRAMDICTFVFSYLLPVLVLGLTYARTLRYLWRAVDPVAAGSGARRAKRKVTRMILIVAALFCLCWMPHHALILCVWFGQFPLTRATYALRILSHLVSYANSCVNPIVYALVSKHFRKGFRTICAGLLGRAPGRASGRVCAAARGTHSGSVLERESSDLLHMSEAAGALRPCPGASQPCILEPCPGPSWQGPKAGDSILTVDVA
PKD1 kinase inh – blocks activity of human protein kinase D1. inhibition, %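 (about 10 µM by stock and volumes)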. 200,000 tested, 0.056% active. Q15139. AID 797. PKD1 kinase fluorescence polarization assay;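 active = inhibition of 50% or more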;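 note: controls were vehicle for no effect and a reference inhibitor for full effect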
INS promoter inh – TRM-6 insulin promoter activity inhibition; TRM-6 cells (human fetal islet line), insulin promoter-eGFP reporter, imaging; reporter expression induced with tamoxifen; inhibition, % at 2 µM; 130,000 tested, 0.9% active;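 active = inhibition above the mean plus 3 SD, with well images judged a real hit on visual review, cut at about 60% in these data, passing the limit was not always enough; inconclusive = inhibition over the cutoff but images rejected on review; inactive = inhibition not above the cutoff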
HSV replic up – increases HSV replication in cells; HSV replication augmentation in cells, fold increase; AID 1956; maximum fold increase; 220,000 tested, 0.005% active;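 active = peak rise of 1.5-fold or more in the series; inconclusive = self-fluorescent or not available for retest; tested in PC3 cells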;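 note: first round at 10 µM; read as green reporter fluorescence; hits show the peak of a series up to 25 µM; 1 = signal of infected wells without compound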
RGS16-Gao – modulates binding between human RGS16 and Galphao; binding response (% of control), % at 10 µM; O15492+P09471; 220,000 tested, 0.38% active; bead-based flow cytometry RGS16-Galphao binding, fluorescence; actives lie on both sides;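 active = below 25% or above 175%, edge rows of some plates excepted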;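 note: Galphao activated by GDP with aluminum fluoride before binding; 100% = wells without compound and 0% = beads without RGS; some results beyond the cut were filed as inactive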
Target sequence (O15492 whole entry, looked up): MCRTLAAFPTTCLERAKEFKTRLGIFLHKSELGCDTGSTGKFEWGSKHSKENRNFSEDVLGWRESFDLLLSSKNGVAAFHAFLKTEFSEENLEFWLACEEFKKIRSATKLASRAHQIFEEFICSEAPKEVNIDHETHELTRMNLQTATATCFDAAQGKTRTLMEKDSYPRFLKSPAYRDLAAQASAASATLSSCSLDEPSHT
Target sequence (P09471 whole entry, looked up): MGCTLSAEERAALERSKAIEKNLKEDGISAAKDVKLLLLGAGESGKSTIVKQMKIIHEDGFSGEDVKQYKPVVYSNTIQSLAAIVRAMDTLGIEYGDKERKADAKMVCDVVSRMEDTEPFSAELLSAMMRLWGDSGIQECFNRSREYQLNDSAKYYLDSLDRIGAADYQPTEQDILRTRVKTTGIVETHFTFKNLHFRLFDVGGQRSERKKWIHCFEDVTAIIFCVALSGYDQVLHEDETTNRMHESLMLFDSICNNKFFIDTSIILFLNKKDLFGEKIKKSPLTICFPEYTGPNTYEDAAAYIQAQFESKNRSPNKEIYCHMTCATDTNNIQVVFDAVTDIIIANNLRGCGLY
INS promoter inh cell count – second read-out of INS promoter inh, no call of its own (marks repeat the call); normalized cell count, %; measured here: cell count, toxicity; reference of the scale not given here;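 cells exposed to compound for 48 h; stained nuclei by imaging scaled within each plate; lower means fewer cells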
HSV replic up primary fold – recorded beside HSV replic up, whose call it bears; fold increase; compound at 10 µM; measured here: primary screen fold increase 10 uM; tested in PC3 cells;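 GFP signal in the first replicate; 1 = infected wells without compound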
The depositor's hits bear a star; i = inactive; ? = inconclusive; . = no result given.

SMILES	GALR2 agonist	PKD1 kinase inh	INS promoter inh	INS promoter inh cell count	HSV replic up	HSV replic up primary fold	RGS16-Gao
CCOc1ccc(N=C(NC#N)SCC)cc1	-2.2	-3.9	22.2	95.5	i	0.8	104.7
COc1ccc(-n2cc(CNCCc3cnc[nH]3)c(-c3cccc(F)c3)n2)cc1	.	-4.7	2.4	137.7	i	0.74	107.6
CC(C)Cc1nc2oc3c(NCC4CCCO4)ncnc3c2c2c1CCC2 (stereo not drawn)	-2.1	-6.5	.	.	i	0.87	100.8
Cc1cc(=O)n2[nH]c(C(=O)O)nc2n1	-0.4	-3.1	-76.7	86.2	i	0.85	108.4
Cc1nnc(SCc2nc3ccccc3nc2C)s1	-1.1	-10.1	-56.5	83.2	i	0.8	89.3
CC(C)C1S/C(=N/N=C/c2cccs2)NC1=O (stereo not drawn)	-2.6	8.5	.	.	.	.	98.8
CCOC(=O)c1cn(-c2nc(-c3ccc(Cl)cc3)cs2)c2c(F)c(N3CC(C)OC(C)C3)c(F)cc2c1=O (stereo not drawn)	-4.0	-6.8	.	.	i	0.98	101.2
CN(/N=C/c1ccncc1)c1cnn(-c2ccc(F)c(Cl)c2)c(=O)c1Cl	-0.1	3.1	-9.1	85.6	i	0.71	101.5
Clc1ccc(OCCN2CCOCC2)cc1Cl	-1.2	-1.3	-428.6	76.3	i	1.02	102.7
CCC(C)(C)n1nnnc1CN(Cc1cc2cc(OC)ccc2[nH]c1=O)C1CCCC1	1.4	6.6	.	.	i	1.06	103.4
CC(Sc1ccc(Cl)cc1)C(=O)NCc1ccc2c(c1)OCO2 (stereo not drawn)	2.6	-4.4	3.6	122.4	i	0.95	99.2
CSc1nc2ccc3nc(NC(=O)c4ccccc4)sc3c2s1	-2.1	-4.1	.	.	i	0.96	110.9
CCOc1ccc2[nH]c(=O)c(CN(CCO)C(=O)c3ccccc3F)cc2c1	-1.5	4.7	12.1	85.3	i	1	100.3
CNC(=O)NC(=O)CSc1nc2cc(C(=O)OC)ccc2c(=O)n1-c1ccccc1	-0.1	-1.8	.	.	i	0.85	124.2
Cc1cc(CNC(=O)C(C)n2nc(C)c([N+](=O)[O-])c2C)c2ccccc2n1 (stereo not drawn)	.	2.1	13.3	94.7	i	0.94	99.2
Cc1cc([N+](=O)[O-])ccc1NC(=O)C1CCCO1 (stereo not drawn)	-0.8	-4.9	9.1	88.8	i	0.83	91.2
Cc1cc(C)nc(Nc2n[nH]c(COc3cccc4ccccc34)n2)n1	-2.6	-5.9	-29.7	69.5	.	.	97.1
CSc1nc2ccc3nc(NC(=O)c4ccc(Cl)s4)sc3c2s1	-2.4	-1.7	.	.	i	0.96	95.3
CCCOC(=O)c1ccc(NC(=O)C2C3CCC(C3)C2C(=O)O)cc1 (stereo not drawn)	-3.0	-0.1	12.9	83.2	i	0.96	122.5
c1coc(CN2CNc3nc4ccccc4n3C2)c1	.	.	.	.	i	0.86	95.6
CCOC(=O)C1=C(C)N(CC)C(=S)NC1c1ccccc1OC(F)F (stereo not drawn)	.	-5.3	-57.1	146.7	i	0.93	107.9
O=C(O)CCC(=O)Nc1ccc(S(=O)(=O)N2CCCC2)cc1	-1.9	0.8	.	.	i	1.01	105.9
CCOc1ccc(CNCc2ccc(C(=O)O)cc2)cc1OC	.	-3.8	14.3	60.7	i	1.04	102.0
CN(C(=O)COC(=O)c1ccccc1NC(=O)c1ccco1)C1CCS(=O)(=O)C1 (stereo not drawn)	.	1.1	33.3	101.4	i	0.98	105.2
O=C(CSCc1ccc(Cl)cc1)NN=C1CCCC1	-0.2	2.1	-33.3	113.0	i	0.97	99.6
CC1(C)CC(=O)C(C=NCCC2=CCCCC2)=C(O)C1	-0.9	24.7	18.2	108.5	i	1.04	98.6
CCOc1ccc(N=C2Sc3nc4ccc(C)cc4cc3CN2CCOC)cc1	.	4.5	58.3	74.9	i	1.07	102.3
O=C(Nc1ccc(O)cc1)/C(=C\c1ccncc1)NC(=O)c1ccccc1	.	1.2	.	.	i	0.89	105.5
COc1ccc(C(=O)Nc2ccccc2C(=O)NC(C)C)cc1OC	-1.1	-4.3	-10.7	73.5	i	0.957	108.1
CC1(C)CC(CC(=O)NC(=S)Nc2ccc([N+](=O)[O-])cc2)C(=O)O1 (stereo not drawn)	-1.8	4.9	23.1	85.7	i	0.997	97.8
O=C(CSc1ncccn1)Nc1ncc(C(F)(F)F)cc1Cl	.	3.6	27.8	124.8	?	.	94.5
Cn1c(CNC(=O)c2cccs2)nnc1SCC(=O)Nc1ccc(Cl)cc1	-1.9	-6.4	10.0	136.1	i	0.92	96.4
O=C(NCc1ccccn1)c1n[nH]c(=O)c2ccccc12	.	.	.	.	i	1.02	100.9
COC(=O)c1ccc(NC(=O)CSCc2ccccc2C)cc1	-0.9	-4.4	20.0	66.3	i	0.91	96.5
COC(=O)c1ccc(OCC(O)CN(CC(C)C)CC(C)C)cc1 (stereo not drawn)	-0.2	-7.5	.	.	i	1	261.8
CCn1nnc(NC(=O)c2cccnc2)n1	-2.5	0.7	.	.	i	1.04	77.1
O=C(NCCc1ccc(S(=O)(=O)N2CCCC2)cc1)c1cccs1	1.2	-6.9	.	.	i	1.06	109.4
CCCCC(c1nnnn1C1CCCC1)N1CCN(C2CCCC2)CC1 (stereo not drawn)	-1.6	-6.5	-78.6	113.4	i	1	99.0
CC(Sc1nc(N)cc(=O)[nH]1)C(=O)Nc1cccc(Cl)c1 (stereo not drawn)	-0.4	-14.1	-11.7	87.6	i	0.92	105.1
NC(=O)C1(N2CCCCC2)CCN(C(=S)Nc2cccc(Cl)c2)CC1	-1.1	-2.1	.	.	i	1.01	103.3
O=C1CCC([N+](=O)[O-])C(c2cccc(Br)c2)N1 (stereo not drawn)	-0.9	-10.4	29.6	93.3	i	0.97	110.5
COC(=O)C1=C(C)N(CCc2c[nH]c3ccc(OC)cc23)C(=O)C1	.	3.3	-33.3	87.5	i	1.02	99.2
O=C(CSc1ncn(-c2ccccc2)n1)Nc1ccc2c(c1)OCCO2	-1.2	-15.4	42.3	96.0	i	0.85	101.8
CCN(CC)CCN(CC)Cc1ccccc1Br	-3.5	-5.9	.	.	i	0.93	101.8
C/C(=N\NC(=O)C(=O)Nc1cc(C)ccc1C)c1ccncc1	.	.	.	.	i	0.82	116.7
C=CCNC(=O)CCCCC(=O)NCC=C	1.0	-2.3	30.6	114.9	i	0.9	100.4
COc1ccc(NC(=O)CN2CCN(CC(=O)Nc3ccccc3F)CC2)c(OC)c1	0.2	6.4	7.7	56.8	i	0.93	103.5
Brc1ccc(C=Nc2ccc3c(c2)OCCOCCOCCO3)s1	-1.0	-6.4	-306.2	35.1	i	0.98	26.2
Cc1ccc(-c2n[nH]c(=S)n2/N=C/C=C/c2ccccc2[N+](=O)[O-])cc1	-0.6	-0.5	9.7	92.5	?	.	96.9
CCOC(=O)Cn1nc2sc3ccccc3n2c(=O)c1=O	.	.	.	.	i	1.06	98.4
COc1cccc(NC(=S)N(CCc2c(C)[nH]c3ccc(C)cc23)Cc2cccs2)c1	-0.5	-4.1	4.8	92.2	.	.	.
Cc1ccc(Sc2ncccc2C(=O)O)cc1C	-1.4	-3.3	-19.5	115.5	i	1.05	106.1
CCOC(=O)c1ccc(NC(=O)CC2S/C(=N/N=C3/NC(=O)CS3)NC2=O)cc1 (stereo not drawn)	.	-10.8	.	.	i	1.03	80.1
CCOc1ccc(Nc2oc(Cc3ccccc3)nc2C#N)cc1	-0.5	-14.7	21.6	54.0	i	0.893	100.5
CC(C)(C)C1CCC(C(=O)Nc2ccccc2)CC1 (stereo not drawn)	-0.5	-1.2	.	.	i	0.96	103.7
O=C(N/N=C/c1cccc([N+](=O)[O-])c1)c1cccs1	-0.6	20.8	17.5	78.9	i	0.97	95.4
N#C/C(=C\c1ccc(N2CCOCC2)o1)c1nc2ccccc2[nH]1	-1.0	-19.4	-142.1	92.2	?	.	95.4
CCOC(=O)NN1C(=O)c2ccccc2NC1c1ccc(OC)cc1 (stereo not drawn)	-0.1	8.4	-21.2	96.9	i	0.99	150.9
COc1cc(/C=N/O)ccc1Oc1ccc([N+](=O)[O-])cc1[N+](=O)[O-]	.	-0.6	35.3	81.1	i	0.86	60.0
CC1=C(C(=O)N2CCOCC2)C(c2cccs2)NC(=O)N1 (stereo not drawn)	-1.1	2.0	.	.	i	1.01	90.2

(continued)
SMILES	GALR2 agonist	PKD1 kinase inh	INS promoter inh	INS promoter inh cell count	HSV replic up	HSV replic up primary fold	RGS16-Gao
Cc1ccccc1NC(=O)c1ccc(NC(=O)c2ccco2)cc1	-1.5	-12.1	51.9	140.0	i	0.91	104.3
Fc1ccc(N=C2NN=C(c3cc(F)ccc3F)CS2)cc1	0.1	-0.4	.	.	i	1.09	94.5
COc1c(F)c(F)c(C(=O)O)c(Nc2ccccc2C)c1F	-2.6	3.1	-23.1	139.8	.	.	101.2
COC(=O)c1sc(SC)c(-c2ccon2)c1C	.	.	.	.	i	1.06	96.7
CC(C)c1ccccc1NC(=O)COc1ccc2c(=O)c(Oc3ccc4ccccc4c3)coc2c1	-1.5	9.4	-50.8	118.4	i	0.93	95.4
S=c1[nH]nc(-c2ccco2)n1/N=C/c1cccc(Cl)c1	.	.	.	.	i	1.25	97.3
O=C(NCc1cccs1)C1CCCN(S(=O)(=O)c2ccc(Br)s2)C1 (stereo not drawn)	1.1	10.3	-21.4	117.1	i	0.97	87.1
O=C(NNc1ccccc1[N+](=O)[O-])Nc1ccc(F)cc1	-1.1	-8.1	.	.	i	0.92	106.6
CC(=O)Nc1c(O)c2ccccc2[nH]c1=O	.	-0.2	.	.	i	1	101.9
CC(/C=C/c1ccco1)=N/NC(=O)c1ccccc1Cl	-0.7	-12.9	.	.	i	0.92	97.1
Cc1cc(/C=N/NC(=O)CC2(C)OCCO2)c(C)n1-c1ccc(Cl)c(Cl)c1	-0.5	-3.6	65.7	131.4	i	0.84	104.5
N#Cc1ccc(N/N=C/c2cn(-c3ccccc3)nc2-c2ccccc2)c([N+](=O)[O-])c1	0.1	5.0	-16.7	45.5	i	0.86	102.8
Fc1ccc(-c2csc(-c3ccncc3)n2)cc1	.	9.1	-15.0	108.0	i	1.01	99.2
CC(C)CC(=O)N=C1SC2CS(=O)(=O)CC2N1Cc1ccccc1Cl (stereo not drawn)	.	.	.	.	i	0.87	106.7
COc1cccc(C2CCCCN(C)C2=O)c1 (stereo not drawn)	.	.	.	.	i	1.01	95.7
CCOC(=O)Cn1c(=O)oc2cc(S(=O)(=O)Nc3c(C)cc(C)cc3C)ccc21	-3.3	12.0	.	.	i	1.03	105.1
O=C(Cc1ccccc1)Nc1ccccc1C(=O)Nc1ccc(C(=O)O)cc1	.	-8.8	-18.2	113.6	i	0.85	138.6
CCCCCCC(=O)Nc1nc(C)c(-c2csc(Nc3ccc(Cl)cc3)n2)s1	0.3	1.4	8.9	148.2	i	0.72	98.8
O=C1CSCC(=O)N1c1ncc(C(F)(F)F)cc1Cl	.	.	.	.	i	0.9	98.3
NNc1nc(-c2ccccc2)cs1	.	-10.6	45.5	104.7	i	1.05	88.8
Cc1ccc(C(=O)N2CCN(c3ncccn3)CC2)cc1S(=O)(=O)N1CCCCC1	-0.7	-9.9	40.7	126.4	i	1.1	94.6
